VDR inhibitor = inhibitors of human vitamin D receptor; P11473; VDR-SRC2-3 peptide fluorescence polarization, 2 h; Potency, µM, inactives show max response, negative = inhibition, most hits filed as inhibitors; hit rate 0.93% among 400,000; active means well fitted inhibition curve with a large enough effect; inconclusive means small, poorly fitted or top-dose-only effect, or another doubt; inactive means no such curve, though single readings can be large or run the other way; further: series mostly up to about 120 µM
Target sequence (P11473 whole entry, looked up): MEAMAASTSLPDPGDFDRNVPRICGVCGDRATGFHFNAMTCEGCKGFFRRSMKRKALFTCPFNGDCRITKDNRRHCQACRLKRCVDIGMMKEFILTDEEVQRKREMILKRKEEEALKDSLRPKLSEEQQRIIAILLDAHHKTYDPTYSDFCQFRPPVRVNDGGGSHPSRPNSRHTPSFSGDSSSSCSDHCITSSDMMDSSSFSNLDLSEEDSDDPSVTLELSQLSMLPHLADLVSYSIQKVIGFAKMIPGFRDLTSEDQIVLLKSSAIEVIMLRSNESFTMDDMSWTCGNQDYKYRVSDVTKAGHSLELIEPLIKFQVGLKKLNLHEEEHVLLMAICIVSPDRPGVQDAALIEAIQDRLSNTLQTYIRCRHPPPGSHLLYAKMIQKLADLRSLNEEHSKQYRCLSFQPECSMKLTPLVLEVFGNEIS
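Signal is fluorescence polarization, reporting how far test compounds block the interaction of VDR with the SRC2-3 coregulator peptide after a 2 h room-temperature incubation.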
The depositor's hits bear a star; ? = inconclusive; & = joins results of further samples. On the % scale 0 is the no-effect control and ±100 the full control effect; potency means the concentration at half of the fitted maximal effect.

SMILES	VDR inhibitor
O=C(CN1C(=O)C2CC=CCC2C1=O)NC1CCCCC1 (centres undefined)	-10.3%
Cc1ccc(-n2ncc(C(=O)N3CCCCC3)c2C2CCN(C(=O)OC(C)(C)C)CC2)cc1C	2.2%
CSc1ccc(CNC2CC2)cc1	3.9%
O=C(CSc1nnc(-c2cccs2)o1)OC1CCCCC1	-8.0%
CCN(C(=O)CCS(=O)(=O)c1ccc2c(c1)oc(=O)n2C)c1ccc(OC)cc1	-7.1%&7.1%
COc1ccc(CNC(=O)CCn2c(=O)oc3ccccc32)c(OC)c1	12.3%
CCC(=O)Nc1cccc2ccccc12	5.9%
Cc1ccc(CNC(=O)CC(C)CC2=NS(=O)(=O)c3ccccc3N2)cc1 (centres undefined)	4.4%
COc1cc(/C=N/Nc2ccccc2[N+](=O)[O-])cc(OC)c1O	-12.3%
COc1ccc(N2CCN(C(=O)Cn3c(=O)c4cccn4c4cccnc43)CC2)cc1	-7.5%
O=C(COc1ccc2ccc(=O)oc2c1)NCc1ccccn1	-13.1%
O=C(C1CCN(S(=O)(=O)c2cnc[nH]2)CC1)N1CCn2c1nc1ccccc12	-5.7%
Cc1c(O)c(S(=O)(=O)c2ccccc2)c(=O)n(-c2ccccc2)c1-c1ccccc1	-11.8%
CC(=O)c1sc(-c2ccccc2)cc1N	4.7%
CCCC(=O)N1CCc2cc(OC)c(OC)cc2C1COc1ccccc1OC (centres undefined)	13.8%&0.4%

Two compounds drawn at random from those above, as already listed:
SMILES	VDR inhibitor
COc1cc(/C=N/Nc2ccccc2[N+](=O)[O-])cc(OC)c1O	-12.3%
CCN(C(=O)CCS(=O)(=O)c1ccc2c(c1)oc(=O)n2C)c1ccc(OC)cc1	-7.1%&7.1%

(next part)
SMILES	VDR inhibitor
O=C(Nc1ccc(Cc2ccncc2)cc1)c1ccco1	0.1%
CCOC(=O)c1cnc(-n2cc(C)cn2)nc1NCc1ccc2c(c1)OCO2	3.8%
CCOC(=O)c1cnn(-c2ncnc3sc(C)c(C)c23)c1N	-2.6%
CCOc1cc(N2CCOCC2)c(OCC)cc1NS(=O)(=O)c1cc(NC(C)=O)ccc1OC	7.2%
C[C@@H](C(=O)N1CCN(C(=O)OC(C)(C)C)CC1)n1cc(CCCN=C(NC(=O)OC(C)(C)C)NC(=O)OC(C)(C)C)nn1	-19.1%
COc1cccc(NC(=O)C2CC2(c2cccc(OC)c2)c2cccc(OC)c2)c1 (centres undefined)	9.3%
O=C(CN1C(=O)CSC1=O)NCc1ccccc1	2.9%
Cc1onc(-c2ccccc2Cl)c1C(=O)N1CCN(C=O)CC1	20.9%
C/C(=N/NC(=O)Cc1cc(=O)[nH][nH]1)c1ccc([N+](=O)[O-])cc1	-10.2%
CCc1nn(CC(=O)NCc2ccco2)c(=O)c2cc3c(OC)cccc3n12	-5.6%
CCCN(CC(=O)Nc1ccccc1OC)C(C)C(=O)NC(C)CCc1ccccc1 (centres undefined)	-19.4%
CCCC(=O)NCCCc1nc2ccccc2[nH]1	11.5%
CCn1c2ccccc2c2cc(/C=N/n3cnnc3)ccc21	-3.8%
Cc1ccc2nc(C)cc(SCC(=O)N/N=C/c3ccco3)c2c1	-9.5%
CCOC(=O)CSc1nnc(CNC(=O)c2ccc(OC)cc2)n1Cc1ccccc1	10.4%

In a second layout: 4 of the compounds above.
CCCN(CC(=O)Nc1ccccc1OC)C(C)C(=O)NC(C)CCc1ccccc1 (centres undefined)
- VDR inhibitor: -19.4%

O=C(Nc1ccc(Cc2ccncc2)cc1)c1ccco1
- VDR inhibitor: 0.1%

CCn1c2ccccc2c2cc(/C=N/n3cnnc3)ccc21
- VDR inhibitor: -3.8%

CCCC(=O)NCCCc1nc2ccccc2[nH]1
- VDR inhibitor: 11.5%

(listing goes on)
SMILES	VDR inhibitor
CCCCCOc1ccc(C(=O)CCC(=O)NNC(=O)c2ccncc2)cc1	-2.1%
C=CCS(=O)(=O)c1nc2ccccc2s1	-0.5%
COc1ccc(CCN(C)C2CCCN(S(=O)(=O)C(C)C)C2)cc1OC (centres undefined)	-1.8%
NC(=O)C1CC(=O)N(c2ccc(OCc3ccc(F)cc3)cc2)C1 (centres undefined)	-22.5%
O=C(COC(=O)Cn1cnc2ccccc2c1=O)NNC(=O)c1ccc(Br)cc1	-8.6%
Cc1cc(=O)[nH]c(/N=C(\N)Nc2ccc(Oc3ccccc3)cc2)n1	0.3%
CSc1ncccc1C(=O)Nc1cc(Cl)ccc1N1CCOCC1	-22.0%
CC(C)Sc1nnc(NC(=O)C2CC2)s1	7.5%
Cc1nn2c(C)c(C(=O)NCc3ccco3)cnc2c1-c1ccccc1	3.9%
CCCc1c(C)nc(N2CCN(c3cccc(OC)c3)CC2)[nH]c1=O	5.1%
Cc1ccc(CSc2nnc(C(F)(F)F)n2Cc2ccc(F)cc2)cc1	-7.5%
CC(NC(=O)c1c(O)nc2ccccn2c1=O)c1ccccc1 (centres undefined)	7.6%
CCOC(=O)c1ccccc1NC(=O)C1CCN(c2ncnc3c2nc2n3CCCCC2)CC1	10.8%
COc1cccc(N(C)C(=S)Oc2ccc3c(c2)CCCC3)n1	-4.4%
COc1ccc(CN(C)C(=O)Cc2ccsc2)c(OC)c1OC	1.2%
Cc1ccc(Cl)c2sc(NC(=O)CS(=O)(=O)c3ccc(Cl)cc3)nc12	3.2%
Nc1ncn(CC(=O)c2ccccc2)n1	-10.9%
N#Cc1cc2ccc(N3CCOCC3)cc2cc1C#N	-6.9%
COc1cccc(CCNC(=O)c2cnc3sc(N4CCCC4)nn3c2=O)c1	1.4%
O=C(NC1(C(F)(F)F)NC(=O)N(CCc2ccccc2)C1=O)c1ccccc1Cl (centres undefined)	2.5%
CCOC(=O)c1c(NC(=O)c2ccc(S(=O)(=O)N3CCCC(C)C3)cc2)sc2c1CCN(C(C)C)C2 (centres undefined)	21.6%
O=C(COC(=O)c1cnccn1)Nc1ccc(Cl)cc1C(F)(F)F	4.4%
COc1cccc(CNC(=O)Cn2nc(C)c([N+](=O)[O-])c2C)c1	-7.9%
CC(C)(O)C#Cc1ccc(CN2CCN(CCc3ccccc3)C(CCO)C2)s1 (centres undefined)	2.0%
CN(C1CCCC1)C1CCN(C(=O)CNC(=O)/C=C/c2ccc(F)cc2)CC1	-15.5%
Cc1cc2c(c3oc(=O)c4ccccc4c13)CN(Cc1ccc(F)cc1)CO2	15.9%
CC(C)(C)Nc1nc(SCC(=O)Nc2ccccc2Cl)nc(N2CCOCC2)n1	1.5%
CCCCN(C(=O)c1ccc(NC2CC2)c([N+](=O)[O-])c1)c1c(N)n(CCCC)c(=O)[nH]c1=O	4.3%
O=C(NCCOc1nc(N2CCOCC2)nc(N2CCOCC2)n1)Nc1ccc(Cl)cc1	8.2%
Cn1c(N)c(C(=O)COC(=O)CNS(=O)(=O)c2ccc(Cl)c(Cl)c2)c(=O)n(C)c1=O	-28.6%
N=C1CCCN1c1ccccc1O	-3.2%
COc1ccc(C(=O)Nc2ccc3c(c2)OCCO3)cc1	-6.0%
Clc1ccccc1-c1nc(NCc2cccs2)c2ccccc2n1	22.4%
O=C(CSc1nc(=O)[nH]c2c1CCCC2)Nc1ccc(F)cc1F	-1.9%
CCc1c(C)c2nncn2[nH]c1=O	22.0%
COc1ccc(-c2cn[nH]c2-c2ccc(OCc3ccc([N+](=O)[O-])cc3)cc2O)cc1OC	-9.7%
O=C(c1cccc(S(=O)(=O)N2CCOCC2)c1)N1CCN(c2ccccc2)CC1	14.0%
CCC(NC(=O)CCc1c(C)c2cc3c(C)c(C)oc3cc2oc1=O)C(=O)N[C@@H](Cc1ccccc1)C(=O)O (some centres undefined)	-10.1%
Cc1cc(C)nc(SCC(=O)c2ccc([N+](=O)[O-])cc2)n1	-28.0%
Cn1c2cc(Br)sc2c2cnn(Cc3ccc(F)cc3F)c(=O)c21	-1.1%
Cc1cccc(N2CCN(C(=O)CNC(=O)Cc3ccccc3)CC2)c1C	-8.2%
CCOc1ccc(NC(=S)N2CCC(N(C)CCN3CCOCC3)CC2)cc1	-18.6%
Cc1ccc(C2NC(=O)CCC2[N+](=O)[O-])cc1 (centres undefined)	?
COc1ccccc1C1CC(=O)NC(C)=C1C(=O)OCC(C)C (centres undefined)	14.5%
Cc1c(CN(C)C)c2c(n1C)C(=O)c1ccc(Br)cc1-2	-9.2%
Cc1ccc(S(=O)(=O)N2CCCCC2)cc1C(=O)OCC(=O)N1c2ccccc2NC(=O)C1(C)C	12.4%
O=C(NCCC1CCCCN1S(=O)(=O)c1ccccc1)C(=O)NCC1CCCO1 (centres undefined)	-3.0%
COc1ccc(-c2ccc(N(C)C)cc2)cc1[C@H]1[C@H]2C=CC[C@@H](C)[C@@H]2C(=O)N1Cc1ccccc1	-4.2%
CCOc1ccc(C2NC(=O)c3ccccc3O2)cc1OCC (centres undefined)	-6.5%
CCOC(=O)Cc1csc(NC(=O)CSc2nnc(Cc3csc(N)n3)n2C)n1	-8.8%
Cc1ccc(NS(=O)(=O)c2ccc(C)c(C(=O)NCC(c3ccccc3)N(C)C)c2)cc1 (centres undefined)	-10.3%
O=C(CCn1[nH]c(=O)c2ccccc2c1=O)NCCO	1.4%
CC1=C(C(=O)OCC(C)C)C(c2ccc(Br)s2)NC(=O)N1 (centres undefined)	-16.9%
COCCCNC(=O)c1ccc2c(c1)NC(=O)C(C(C)C)N2 (centres undefined)	-8.4%
O=C(Cn1cnc2ccccc2c1=O)NC1CCS(=O)(=O)C1 (centres undefined)	-6.4%
C=CCn1c(=O)c2c(nc(-c3ccc(S(=O)(=O)O)cc3)n2C)n(C)c1=O	-5.0%&-17.3%
Oc1ccccc1C=NN1CCCCCC1	-19.9%
Cc1ccc(-c2nc(-c3ccncc3)no2)cc1C	-2.9%
O=C(COc1ccc2ccccc2c1)NNC(=O)c1ccccc1	16.6%
CCOC(=O)N1CCC(n2c(SCC(=O)NCc3ccco3)nc3ccsc3c2=O)CC1	-1.8%

(continued)
SMILES	VDR inhibitor
O=C(NCCCc1cnc[nH]1)NCCCN(Cc1ccc(Cl)cc1)c1ccc(Br)cn1	0.6%
CCC(C)[C@H](NC(=O)N1CC(=O)Nc2ccccc21)C(=O)N[C@@H](Cc1c[nH]c2ccccc12)C(=O)O (some centres undefined)	-1.4%
Cc1occc(=O)c1OC(=O)Nc1ccc(Cl)c(Cl)c1	-12.0%
COC1C=COC2(C)Oc3c(C)c(O)c4c(O)c(c(CN5CCN(C)CC5)c(O)c4c3C2=O)NC(=O)C(C)=CC=CC(C)C(O)C(C)C(O)C(C)C(OC(C)=O)C1C (centres undefined)	?
COc1ccc(C(=O)N/C(=C/c2cccnc2)C(=O)NCc2ccco2)cc1OC	0.2%
CCOc1cc(S(=O)(=O)NCc2ccncc2)ccc1Cl	-8.5%
c1ccc(OCc2noc(CN3CCC(C4CCCCC4)C3)n2)cc1 (centres undefined)	-5.8%
CCN(CC)CCCOc1nc(C)nc2c1oc1ccccc12	-17.2%
CCCCN1C(=O)NC(NC(C)=O)(C(F)(F)F)C1=O (centres undefined)	3.5%
CN(C(=O)c1ccc(Br)o1)C1CCCCC1	-7.2%
O=C1CCC2S/C(=C/Nc3ccc(C(F)(F)F)cc3)C(=O)N12 (centres undefined)	-21.6%
CCCCC/C=C\C/C=C\CCCCCCCC(=O)NCC(=O)O	-1.9%&-23.6%
CSCC[C@H](N)C(=O)N[C@@H](C)C(=O)NCC(=O)N[C@@H](CCCN=C(N)N)C(=O)N[C@@H](CO)C(=O)NCC(=O)N[C@@H](CC(=O)O)C(=O)N[C@@H](CO)C(=O)N[C@@H](CC(=O)O)C(=O)N[C@@H](CCC(=O)O)C(=O)N[C@@H](CC(=O)O)C(=O)N[C@@H](CC(C)C)C(=O)N[C@@H](CC(C)C)C(=O)N[C@@H](CCCCN)C(=O)N[C@@H](C)C(=O)N[C@H](C(=O)O)C(C)C	0.5%
COCCNC(=O)COC(=O)CSCc1nc2ccccc2s1	-13.7%
CC(=O)c1ccc(N2CCN(C(=O)c3cc(S(=O)(=O)N4CCOCC4)ccc3C)CC2)cc1	-3.1%

Already shown: 6 of the compounds above.
SMILES	VDR inhibitor
Cc1occc(=O)c1OC(=O)Nc1ccc(Cl)c(Cl)c1	-12.0%
COC1C=COC2(C)Oc3c(C)c(O)c4c(O)c(c(CN5CCN(C)CC5)c(O)c4c3C2=O)NC(=O)C(C)=CC=CC(C)C(O)C(C)C(O)C(C)C(OC(C)=O)C1C (centres undefined)	?
COc1ccc(C(=O)N/C(=C/c2cccnc2)C(=O)NCc2ccco2)cc1OC	0.2%
CCOc1cc(S(=O)(=O)NCc2ccncc2)ccc1Cl	-8.5%
c1ccc(OCc2noc(CN3CCC(C4CCCCC4)C3)n2)cc1 (centres undefined)	-5.8%
CCN(CC)CCCOc1nc(C)nc2c1oc1ccccc12	-17.2%

Next entries follow:
SMILES	VDR inhibitor
O=C(c1cc(-c2ccncc2)nc2ccccc12)N1CCN(c2ccccn2)CC1	-0.6%
CCOC(=O)c1c(-c2ccc(OC)c(OC)c2)csc1NC(=O)c1ccc(F)cc1	-27.6%
CCCOc1ccc(C2C(=O)N(C3CCCCC3)CC(=O)N2C2CCCCC2)cc1OC (centres undefined)	13.1%
Cc1ccc(C2=NN(CCC(=O)NCCCN3CCOCC3)C(=O)CC2)cc1	-16.0%
CN(C)CCCN(C(=O)C1COc2ccccc2O1)c1nc2cc3c(cc2s1)OCO3 (centres undefined)	-1.9%
CC(=Nc1ccccc1)C1=C(O)C(Cc2ccc(O)cc2)NC1=O (centres undefined)	-9.4%
CCOc1cc(/C=C2\N=C(SC)SC2=O)cc([N+](=O)[O-])c1OC(C)=O	-7.6%
CNS(=O)(=O)c1cc(OC)ccc1OC	-9.4%
CN(CC(=O)Nc1sccc1C#N)S(=O)(=O)c1ccc(F)cc1	12.9%
O=C(c1ccc2c(c1)OCCO2)N(Cc1cccnc1)c1nc2ccc(F)cc2s1	-4.5%
COc1ccc(-c2[nH]c(-c3ccc(O)cc3)nc2-c2ccccc2)cc1	0.7%
O=C(N/N=C\c1ccc(F)cc1)c1ccc(Cn2cc(Br)c([N+](=O)[O-])n2)o1	-1.4%
O=C(COc1ccc(Cl)cc1Cl)Nc1noc2ccccc12	1.6%

Screening data deposited in PubChem by National Center for Advancing Translational Sciences (NCATS).

Only part of the results is shown. The share of hits here may be higher or lower than overall.
